# High-throughput results from PubChem BioAssay.
# GLA inh pH 4.5 = blocks human alpha-galactosidase A at pH 4.5. P06280. purified enzyme, 4-MU-alpha-Gal fluorescence, pH 4.5. activity change, negative = inhibition, % at 105 µM. 230,000 tested, under 10 active; inconclusive = small, poorly fitted or top-dose-only inhibition, or a rising curve; inactive = flat fitted curve, though single readings scatter; no compound was filed as active;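 note: 0% = full activity with enzyme and -100% = basal without enzyme; dose as in the result columns while the protocol names 77 µM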
# Target sequence (P06280 whole entry, looked up): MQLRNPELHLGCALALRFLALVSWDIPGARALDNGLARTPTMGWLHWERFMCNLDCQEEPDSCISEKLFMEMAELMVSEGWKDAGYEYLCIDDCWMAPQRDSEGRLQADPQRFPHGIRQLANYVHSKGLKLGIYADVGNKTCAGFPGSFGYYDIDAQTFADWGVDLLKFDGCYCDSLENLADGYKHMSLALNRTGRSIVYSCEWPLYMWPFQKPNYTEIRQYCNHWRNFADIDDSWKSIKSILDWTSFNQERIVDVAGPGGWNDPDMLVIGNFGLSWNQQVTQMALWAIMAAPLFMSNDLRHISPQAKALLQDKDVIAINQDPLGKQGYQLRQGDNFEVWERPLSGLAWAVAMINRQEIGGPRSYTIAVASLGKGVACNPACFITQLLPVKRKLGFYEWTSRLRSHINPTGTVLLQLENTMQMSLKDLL
# * hit, by the source's call; & = joins results of further samples. These rows are one share of the data (hit frequency here may not be typical).
GLA inh pH 4.5,smiles
1,CC1=CC(=O)C2=C(C)C[C@@H]3OC(=O)[C@@H](C)[C@H]3C=C12
0,O=C(N[C@@H](Cc1ccccc1)C(=O)O)c1ccccc1
0,O=C(/C=C/c1ccc(O)c(O)c1)O[C@H]1C[C@@](O)(C(=O)O)CC(O)C1O (some centres undefined)
-12,O=c1c(O)c(-c2ccc(O)cc2)oc2cc(O)ccc12
-2,COC(=O)[C@H]1C[C@@H]1[C@H](NC(C)=O)c1ccccc1
2,CCCC[C@@H]1C[C@H]1C(NC(=O)Cc1ccccc1)c1ccc(-c2ccccc2)cc1 (some centres undefined)
-10,COC(=O)[C@@]1(Cc2ccc(OC)cc2)[C@H]2c3cc(C(=O)N4CCCC4)n(CCc4ccc(O)c(OC)c4)c3C[C@H]2CN1C(=O)c1ccccc1
-2,CN(C)CCCO[C@H]1[C@@H]2OC(C)(C)O[C@@H]2O[C@@H]1[C@H](O)CO
-1,Nc1nc2[nH]c(=O)[nH]c2c(=O)[nH]1
-6,CNc1ncnc2c1ncn2[C@H]1C[C@H](OP(=O)(O)O)[C@H](COP(=O)(O)O)O1
-17,CCCCCCCCCCCCCCCC(=O)OCC(COP(=O)(O)O)OC(=O)CCCCCCCCCCCCCCC (centres undefined)
-6,Cc1ccccc1-c1ccc(C(=O)O)s1
-1,CCCCC/C=C\C/C=C\C/C=C\C=C\C(=O)CCCC(=O)O
-13,CN(C)c1cc2c(Nc3ccc4c(cnn4Cc4ccccc4)c3)ncnc2cn1
-4,Clc1ccc([C@H](Cn2ccnc2)OCc2csc3c(Cl)cccc23)c(Cl)c1
-3,c1ccc(-c2nc(-c3ccccc3)c(NC3CCCCC3)o2)cc1
2,C[C@]1(C(=O)NCC2CC2)C=C[C@@H](Cc2ccccc2)N1C(=O)c1ccccc1
0,C=C1C(N)CC2CC1C2(C)C (centres undefined)
-2,NCCCNCCCCNCCCNC(=O)CCc1ccc(O)cc1
0,Cc1ccc(C(=O)[C@@H]2[C@H]3C4COC(O4)C(=O)[C@@H]3[C@H]3C=Cc4ccccc4N32)cc1 (some centres undefined)
-7,CN(CC[C@@H](Oc1ccc(-c2ccccc2)cc1)c1ccc(F)cc1)CC(=O)O
1,CN(C)C(=O)c1ccc(-c2nc(N(C)C)c3ccccc3n2)cc1
-5,C=C(C)C(=O)OC[C@@H]1CCC[N@+]2(C)CCCCC12 (some centres undefined)
-2,N[C@@H](C(=O)O)c1ccc(C(=O)O)c(O)c1
-26,COC(=O)C1=C(C(=O)OC)[C@@H]2N(C)c3ccc(OC)cc3[C@@]23C[C@@H](C(=O)OC)N(S(=O)(=O)c2ccc(Br)cc2)C3=N1
3,CCCOc1ccc(Br)cc1-c1cc(-c2ccc(Cl)cc2)[nH]c1-c1ccncc1
-10,CC(N)(Cc1ccc(O)c(O)c1)C(=O)O (centres undefined)
4&-14,O=C(O)c1cn(C2CC2)c2cc(N3CCNCC3)c(F)cc2c1=O
-2,CCC[C@@H]1C[C@@]1(CCC)C(NC(=O)OCc1ccccc1)c1ccc(-c2ccccc2)cc1 (some centres undefined)
5,CCCCCCCCCCCCCc1ccco1
-20,COC(=O)[C@@]1(Cc2ccc(OC)cc2)[C@H]2c3cc(C(=O)N(C)C)n(Cc4ccc(C)c(F)c4F)c3C[C@H]2CN1C(=O)c1ccccc1
-2,C=C1CC[C@H](O)C/C1=C/C=C1\CCC[C@]2(C)[C@H]1CC[C@H]2[C@@H](C)/C=C\[C@@H](C)C(C)C
2,O=C(NCCN1CCCCC1)c1ccc(I)cc1
4,COc1ccc2c(=O)c(CC(=O)O)coc2c1
-4,CC(C)C[C@@H](CC(=O)N[C@@H](CCC(=O)O)CC(=O)O)NC(=O)[C@@H]1CNCC[C@H]1NC(=O)C[C@H](CCCN)NC(=O)C[C@H](Cc1ccccc1)NC(=O)[C@@H]1CNCC[C@H]1N
0,CCCCC[C@H](O)/C=C/C=C\C/C=C\C=C\[C@@H](O)CCCC(=O)O
-2,Nc1c(O)cccc1C(=O)C[C@@H](N)C(=O)O
10,Cc1cc([C@](C)(N)C(=O)O)ccc1P(=O)(O)O
0,C/C=C/c1ccc2oc(-c3ccc(O)cc3)c(C)c2c1
-3,COc1ccc2c(c1)O[C@H](c1ccc3c(c1)OCO3)[C@@H](OC(=O)Nc1ccc(C)c(Br)c1)C2=O

# 2 entries from above, with bars between the fields:
SMILES | GLA inh pH 4.5
COc1ccc2c(c1)O[C@H](c1ccc3c(c1)OCO3)[C@@H](OC(=O)Nc1ccc(C)c(Br)c1)C2=O | -3
C/C=C/c1ccc2oc(-c3ccc(O)cc3)c(C)c2c1 | 0

# The list goes on:
GLA inh pH 4.5,smiles
0,N=C1Sc2ccccc2C2=NCCCN12
-2,C=C(C)C(=O)c1cccs1
0,CC[C@]1(c2ccccc2)NC(=O)N(C)C1=O
-8,COC(=O)c1ccc(C(NC(=O)OCc2ccccc2)/C(C)=C/[C@@H](C)C(=O)NCCO)cc1 (some centres undefined)
0,CC(C)c1c(O)ccc2c1CCC1C(C)(C)CCC[C@@]21C (some centres undefined)
6,CC(=O)N1CC=CC1(CC(C)C)C(=O)NCc1ccc(C)o1 (centres undefined)
9,COC(=O)CCCC1=CC2=C(c3ccccc3)C(=O)C(C)(OC(=O)C3CCCC3)C(=O)C2=CN1Cc1ccccc1 (centres undefined)
-1,CCCCC[C@H](O)/C=C/C=C/C=C/[C@H](O)C/C=C\CCCC(=O)O

# An excerpt from above in order of the GLA inh pH 4.5 value, high to low:
structure,GLA inh pH 4.5
COC(=O)CCCC1=CC2=C(c3ccccc3)C(=O)C(C)(OC(=O)C3CCCC3)C(=O)C2=CN1Cc1ccccc1 (centres undefined),9
CC(=O)N1CC=CC1(CC(C)C)C(=O)NCc1ccc(C)o1 (centres undefined),6
N=C1Sc2ccccc2C2=NCCCN12,0

# Following part
GLA inh pH 4.5,smiles
-5,COc1ccc(C(=O)c2ccccc2)c(O)c1O
1,CCCCc1nc2c(c3c1C[C@H](C)OC3)CN(C(=O)Cc1cccs1)CC2
-8,CC(C)C[C@@H](CC(=O)N[C@@H](CCC(=O)O)CC(=O)O)NC(=O)[C@@H]1CNCC[C@H]1NC(=O)C[C@H](CCCN)NC(=O)C[C@H](CO)NC(=O)[C@@H]1CCCC[C@H]1N
-5,COc1cc(=O)n(C)c2c(OC[C@@H](O)C(C)(C)O)cccc12
4,CC(C)=CCC/C(C)=C/CC/C(C)=C/CC/C(C)=C/CC/C(C)=C/CC/C(C)=C/CC/C(C)=C/CC/C(C)=C/CC/C(C)=C/CO
-2,CC(C)(C)OC(=O)NCCCC1=CC2=CC(=O)C(C)(OC(=O)c3ccc(Cl)nc3)C(=O)C2=CO1 (centres undefined)
-16,CCC(=O)OC1CCC2C3CCc4cc(O)ccc4C3CC[C@]12C (some centres undefined)
0,CCc1c(C)[nH]c2c1C(=O)[C@H](CN1CCOCC1)CC2
-10,COc1cccc([C@@H]2Oc3ccc(Br)cc3[C@H](O)[C@H]2O)c1
3,Cc1cc(=O)oc2cc(O)c(O)cc12
-2,CCC1=C2CC[C@H]3C(=O)N(CC)C(=O)[C@H]3[C@H]2[C@@]2(Cc3ccccc3)C(=O)N(CC3CC3)C(=O)N2C1=O
6,CC(=O)/C(C)=N/O
-9,COc1cc2ncnc(Nc3ccc(F)c(Cl)c3)c2cc1OCCCN1CCOCC1
-4,C=C1C2c3ccccc3C(CC2(C)O[Si](C)(C)C)N1C(=O)OC (centres undefined)
4,Cc1ccccc1-c1cncnc1N(C)Cc1ccco1
-2,C/C(=C\C[Si](C)(C)C)CCC=O
-3,N[C@H](Cc1ccc(O)c(O)c1)C(=O)O
-6&-7,CCCCC/C=C/C=C1/C(=O)C=C[C@@H]1C/C=C\CCCC(=O)O
-21,COCCNc1nc(C)nc2c1nc(-c1ccccc1)n2CC1CCN(C)CC1
-4,CCOC(=O)C1CSC(Cc2ccc(OCc3ccc([N+](=O)[O-])cc3)cc2)N1 (centres undefined)
-2,CCN(CC)CCCn1c(-c2ccccc2)nc2c(N(CCOC)CCOC)nc(C)nc21
-11,COC(=O)[C@@]1(Cc2ccc(F)cc2)[C@H]2c3cc(C(=O)N4CCCC4)n(Cc4ccc(S(C)(=O)=O)cc4)c3C[C@H]2CN1C(=O)c1ccccc1
20,CNCc1ccccc1
0,C=Cc1c(C)c2cc3nc(cc4[nH]c(cc5nc(cc1[nH]2)C(C)=C5CCC(=O)O)c(CCC(=O)OC)c4C)[C@@]1(C)C3=CC=C(C(=O)OC)[C@H]1C(=O)OC (tested in a mixture with another compound)

# A draw from above in order of number of heavy atoms, ascending:
GLA inh pH 4.5,smiles
-10,CC(N)(Cc1ccc(O)c(O)c1)C(=O)O (centres undefined)
-5,COc1cc(=O)n(C)c2c(OC[C@@H](O)C(C)(C)O)cccc12
-4,Clc1ccc([C@H](Cn2ccnc2)OCc2csc3c(Cl)cccc23)c(Cl)c1
0,Cc1ccc(C(=O)[C@@H]2[C@H]3C4COC(O4)C(=O)[C@@H]3[C@H]3C=Cc4ccccc4N32)cc1 (some centres undefined)
-2,CCC[C@@H]1C[C@@]1(CCC)C(NC(=O)OCc1ccccc1)c1ccc(-c2ccccc2)cc1 (some centres undefined)
9,COC(=O)CCCC1=CC2=C(c3ccccc3)C(=O)C(C)(OC(=O)C3CCCC3)C(=O)C2=CN1Cc1ccccc1 (centres undefined)
-8,CC(C)C[C@@H](CC(=O)N[C@@H](CCC(=O)O)CC(=O)O)NC(=O)[C@@H]1CNCC[C@H]1NC(=O)C[C@H](CCCN)NC(=O)C[C@H](CO)NC(=O)[C@@H]1CCCC[C@H]1N

# The listing continues.
GLA inh pH 4.5,smiles
5&5,C1CCN2C[C@H]3C[C@H](CN4CCCCC34)C2C1 (some centres undefined)
4,C[C@@H](NCc1cc(Br)cc2[nH]c(=O)c(=O)[nH]c12)P(=O)(O)O
-14,COc1ccc2c(c1)N(C[C@@H](C)CN(C)C)c1ccccc1S2
9,COc1ccc(-c2nc3c(c4c2C[C@H](c2ccccc2)OC4)CN(S(=O)(=O)c2ccc(Cl)c4nonc24)CC3)c(C)c1
11,COc1ccc(NC(=O)N2CCc3nc(-c4ccccc4)c4c(c3C2)CO[C@@H](C)C4)cc1
-19,CC1OC(OCC2OC(Oc3c(-c4ccc(O)c(O)c4)oc4cc(O)cc(O)c4c3=O)C(O)C(O)C2O)C(O)C(O)C1O (centres undefined)
-8,O=[N+]([O-])c1cccc2c[nH]nc12
2,OB(O)c1cc2ccccc2o1

# Pulled by structure from the list above (two):
GLA inh pH 4.5,smiles
11,COc1ccc(NC(=O)N2CCc3nc(-c4ccccc4)c4c(c3C2)CO[C@@H](C)C4)cc1
9,COc1ccc(-c2nc3c(c4c2C[C@H](c2ccccc2)OC4)CN(S(=O)(=O)c2ccc(Cl)c4nonc24)CC3)c(C)c1

# Next part
GLA inh pH 4.5,smiles
8,CC1(OC(=O)c2ccc(Cl)nc2)C(=O)C=c2cc(-c3ccsc3)ncc2=C1OC(=O)C1CCCC1 (centres undefined)
-5,Cc1cc(C(=O)O)ccc1[C@H](N)C(=O)O
1,CC(=O)N1CC=CC1(CC(C)C)C(=O)NCC1CC1 (centres undefined)
2,c1cncc(CNc2cc(-c3ccc4c(c3)OCO4)ncn2)c1
-2,FC(F)(F)c1cc(NC(=S)Nc2ccc3cc4ccccc4cc3c2)cc(C(F)(F)F)c1
-3,CN(C)C(=O)c1ccc(-c2cncnc2NCc2cccs2)cc1
-3,CCCC[C@@H]1C[C@H]1C(NC(=O)c1cccs1)c1ccc(-c2ccccc2)cc1 (some centres undefined)
-1,CC(=O)Nc1ccc(S(=O)(=O)N2CCc3nc(-c4ccccc4)c4c(c3C2)CO[C@@H](C)C4)cc1
1,CCCCC/C=C\C[C@H](O)/C=C/C=C\C/C=C\CCCC(=O)O
-10,Cc1n[nH]c(=O)[nH]c1=O
-9,C=CCCCCCCCCCCCC(O)CC(O)COC(C)=O (centres undefined)
6,CC(C)CCCC(C)C1CCC2C3CC(=O)[C@H]4CC(O)CC[C@]4(C)C3CC[C@@]12C (some centres undefined)
-2,CC[C@H](CO)NCCN[C@@H](CC)CO
-5&11,CC[C@@]1(O)C(=O)OCc2c1cc1n(c2=O)Cc2cc3cc(O)ccc3nc2-1
-6,Cc1nc(N2CCOCC2)c2nc(-c3ccccc3)n(CCN(C)C)c2n1
-2,CN1CCN(c2nc(-c3ccc(N(C)C)cc3)nc3ccccc23)CC1
-14,Cc1noc(C)c1-c1ccc2ncnc(NCc3ccccc3)c2c1
-9,Oc1ccc(Nc2nc(-c3ccc(Cl)cc3)cs2)cc1
1,Cc1sc(N)c(C(=O)c2cccc(C(F)(F)F)c2)c1C
3,COC(=O)[C@H]1C[C@@H]1[C@H](NC(=O)Oc1ccc(F)cc1)c1ccccc1
-16,CCC/C=C(\CCC)C(NP(=O)(c1ccccc1)c1ccccc1)c1ccc(-c2ccccc2)cc1 (centres undefined)
-2,C=CCOC(=O)N[C@H](/C(C(=O)OC)=C(\C)NCc1ccccc1)c1cccc(F)c1
-14,CCOC(=O)C1C/C(=C\C(C)=O)c2cccc(C(F)(F)F)c2O1 (centres undefined)
-4,COC(=O)[C@@]1(Cc2ccccc2)[C@H]2c3cc(C(=O)N(C)C)n(Cc4ccc(OC)c(OC)c4)c3C[C@H]2CN1C(=O)c1ccccc1
-6,COCCNC(=O)[C@H](C)/C=C/C(NC(=O)OCc1ccccc1)c1ccc(C(=O)OC)cc1 (some centres undefined)
2,NC(Cc1c[nH]c2ccccc12)C(=O)NCC(=O)O (centres undefined)
-3,COC(=O)[C@@H]1C=C[C@H](C)[C@H](CCOc2ccccc2)O1
-9,CCC/C=C(\CCC)C(NS(=O)(=O)c1ccc(-c2ccccc2)cc1)c1ccc(C(=O)OC)cc1 (centres undefined)
-8,C[C@H]1Cc2c(-c3ccccc3)nc3c(c2CO1)CN(C(=O)c1cc(I)ccc1F)CC3
-6,CC(=O)[C@@]1(O)CC[C@H]2C3CCC4=CC(=O)CC[C@]4(C)C3CC[C@@]21C (some centres undefined)
-3,C=CCC(C)(O)/C=C/c1ccccc1 (centres undefined)
4,CCCCCCCCCCCCC(=O)N1CCCC[C@H]1CNC(=O)[C@@H](N)CCCCN
-3,CC(=O)N[C@H](C(=O)O)C(C)(C)SN=O
3,COc1cccc([C@@H]2Oc3ccc(Br)cc3C(=O)[C@H]2OC(=O)Nc2cc(OC)c(OC)c(OC)c2)c1
-1,CC(C)(O/N=C(\C(=O)N[C@@H]1C(=O)N2C(C(=O)[O-])=C(C[n+]3ccccc3)CS[C@@H]12)c1csc(N)n1)C(=O)O
